miR-21 reporter: qHTS Assay for Modulators of miRNAs and/orActivators of miR-21 | 340,000 tested, under 10 active | HeLa miR-21 FLuc reporter, luciferase, 48 h | Potency, µM (titrated, usually from 38.3 µM), inactives show at the top dose reporter change, positive = more light; active = well fitted rising curve with a large enough effect; inconclusive = small, poorly fitted or top-dose-only effect; inactive = no such curve, though single readings can be large or run the other way;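 note: % of control where 0% means no effect; miR-21 action dims this reporter so a rising signal means less miR-21 action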
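Compounds were titrated across several concentrations (up to approximately 40 uM) and incubated 48 hours with HeLa miR-21-FLuc reporter cells (miR-21 target sequence downstream of FLuc, endogenous miR-21). Readout was firefly luciferase luminescence after lytic detection reagent.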
GLA inh pH 4.5: qHTS Assay for Inhibitors of Human alpha-Galactosidase at pH 4.5 | activity change, negative = inhibition, % at 105 µM | purified enzyme, 4-MU-alpha-Gal fluorescence, pH 4.5 | 230,000 tested, under 10 active | AID 1467, 2008; inconclusive = small, poorly fitted or top-dose-only inhibition, or a rising curve; inactive = flat fitted curve, though single readings scatter; no compound was filed as active;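 note: 0% = full activity with enzyme and -100% = basal without enzyme; dose as in the result columns while the protocol names 77 µM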
Target sequence (P06280 whole entry, looked up): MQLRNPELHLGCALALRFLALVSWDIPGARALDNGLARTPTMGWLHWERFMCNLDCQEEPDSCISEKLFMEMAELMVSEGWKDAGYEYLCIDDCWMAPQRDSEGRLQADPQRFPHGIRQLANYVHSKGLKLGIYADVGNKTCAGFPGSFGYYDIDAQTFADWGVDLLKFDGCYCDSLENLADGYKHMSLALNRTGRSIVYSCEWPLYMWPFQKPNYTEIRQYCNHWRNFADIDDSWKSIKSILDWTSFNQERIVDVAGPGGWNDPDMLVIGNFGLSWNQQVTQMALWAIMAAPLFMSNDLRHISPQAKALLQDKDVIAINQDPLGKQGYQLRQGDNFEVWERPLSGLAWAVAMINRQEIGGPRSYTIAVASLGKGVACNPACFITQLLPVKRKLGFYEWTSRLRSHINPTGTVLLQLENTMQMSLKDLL
Rango dissoc inh: qHTS Assay for Inhibitors of RanGTP induced Rango (Ran-regulated importin-beta cargo) - Importin beta complex dissociation; Snurportin-1 (Homo sapiens) + GTP-binding nuclear protein Ran (Homo sapiens) + Importin …; AID 540253, 2011; 340,000 compounds, 0.071% hits; Biochemical FRET Rango-importin beta, RanGTP-induced dissociation; Potency, µM (titrated, usually from 46.1 µM), inactives show at the highest dose activity change, negative = inhibition; active means falling FRET ratio curve, often poorly fitted, with flat reads before Ran was added; inconclusive means other falling curves, or compound fluorescence or quenching; inactive means flat or rising ratio curve;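 note: potency is the fitted concentration of half-maximal effect; % of control where 0% means no effect; nearly all actives have a fitted effect of over 45% in size; -100% = wells without RanGTP and RCC1; the record marks most hits as doubtful in a second field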
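Compounds sat 5 min at room temperature with 0.1 uM Rango biosensor plus 0.25 uM importin beta, then FRET pre-read. RanGTP-RCC1 (0.6 uM Ran, 2mM GTP, 0.2 uM RCC1) added for 45 min, and the CFP/YFP post-read measured blocked complex dissociation.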
Rango-impB inh: qHTS Assay for Inhibitors of Rango (Ran-regulated importin-beta cargo) - Importin beta complex formation | 340,000 compounds, 0.031% hits | Potency, µM (highest dose often 92.2 µM), without a hit: at the highest dose inhibition of complex formation | Rango CFP/YFP FRET sensor + importin beta, 45 min; active = rising FRET ratio curve, often small or poorly fitted; inconclusive = mostly compound fluorescence or quenching in the first reads; inactive = flat curves in all reads;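 note: potency is the fitted concentration of half-maximal effect; 0% = DMSO wells and 100% = buffer wells lacking importin beta; nearly all actives have a fitted effect of over 15% in size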
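Inhibition scored from the CFP 486 nm/YFP 530 nm FRET ratio 45 min after adding 0.125 microM importin beta to 50 nM Rango biosensor preincubated 5 min with compound (room temperature, PBS with DTT, Tween-20, BSA). No-importin wells as positive control.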
Starred values were filed as active, the others as inactive; ? = inconclusive; . = not tested or not shown; & = joins results of further samples. An excerpt; the hit share may differ from the screen's.

miR-21 reporter	GLA inh pH 4.5	SMILES	Rango dissoc inh	Rango-impB inh
-3%	3	CCOC(=O)N1CCN(C(=O)c2ccc(N3CCCC3=O)cc2)CC1	3%	-2.1%
4%	-5	Cc1[nH]ncc1-c1ccccc1Cl	7%	0.1%
-14%	5	CCCC12CN3CCN(CC(C3)/C1=N\NC(=O)c1ccc(C(C)(C)C)cc1)C2	-11%	-0.5%
0%&4%	.	CCN1C(=NCc2ccco2)N[C@@H](c2cccc(F)c2)C(C(=O)OC)=C1C	-6%	-2.4%
.	.	O=C(CSc1ncnc2c1cnn2-c1ccccc1)NC1CCCC1	2%	-5.7%
1%	9	CN(C)CCCCNCCCNC(=O)/C=N\O	-23%	-1.8%
0%	19	CN(CC(=O)O)S(=O)(=O)c1cccs1	-10%	-3.2%
.	.	COc1ccc([C@@H]2CC=C(C(=O)O)[C@H](c3ccccc3F)N2S(=O)(=O)c2ccccc2C)cc1	-10%	-1.0%
-4%	.	C=CCn1c(SCC(=O)Nc2ccc(S(N)(=O)=O)cc2)nnc1-c1cnccn1	0%	2.7%
-34%	4	Cc1ccn2cc(-c3cccc(NC(=O)c4cccs4)c3)nc2c1	19%	-2.6%
-16%	3	C=CCn1c(-c2c[nH]c3ccccc23)n[nH]c1=S	15%	-0.9%
-6%	-2	CCc1ccccc1OCCCCN1CCCC1	-20%	-2.1%
-6%	6	CCOc1ccc2[nH]c(=O)c(CN(CCc3ccccc3)C(=O)N3CCCC3)cc2c1	0%	?
-50%	-10	OCCCNc1nc(-c2ccc(Cl)cc2)nnc1-c1ccccc1	3%	-1.0%
2%	.	O=C1c2ccc(Oc3ccc([N+](=O)[O-])cc3)cc2C(=O)N1CCCO	7%	-1.3%
-32%	.	O=C(Nc1ccc2c(c1)OCO2)Nc1ccc(F)cc1F	6%	2.3%
13%	8	c1ccc2c(NC3C4CC5CC(C4)CC3C5)nc(N3CCOCC3)nc2c1 (stereo not given)	-2%	0.4%
-33%	6	CC(=O)c1ccc(NC(=O)CSc2nccn2CCc2ccccc2)cc1	10%	-2.4%
-9%	6	Cc1cccc(-n2cnc(C(=O)N3CCN(C)CC3)c2)n1	-9%	-2.9%
2%	.	CN(CCCC(=O)Nc1ccccc1)S(=O)(=O)c1ccc(Cl)cc1	-1%	1.9%
8%	.	Cc1cccc(C(=O)N2CC(=O)Nc3ccc(F)cc3C2c2ccc(F)cc2)c1 (stereo not given)	36%	3.0%
-31%	.	CCCc1nc2ccc(N)cc2c(=O)n1Cc1ccccc1Cl	1%	6.8%
-7%	-6	c1ccc(CCNc2ncnc3c2nnn3Cc2ccccc2)cc1	10%	-2.4%
.	.	O=C1NC(=O)C(c2ccccc2)N1 (stereo not given)	-10%	-0.1%
.	.	CC1CCCC(C)N1C(=O)COC(=O)C1CCN(S(=O)(=O)c2c(Cl)cccc2Cl)CC1 (stereo not given)	-8%	-1.1%
.	.	COc1ccccc1/C=C/C(=O)OCC(=O)Nc1c(C)nn(-c2ccccc2)c1C	19%	-0.1%
-2%	-4	CC(NS(=O)(=O)c1ccc(Br)cc1)C(=O)NCCc1ccccc1 (stereo not given)	-5%	4.3%
-6%	-18	COc1ccc(N2C(=O)/C(=C3/C=CC=CN3C)SC2=S)cc1	-4%	-1.2%
-5%	8	Cc1ccc(-c2ccc(=O)n(CC(=O)NCCN3C(C)CCCC3C)n2)cc1 (stereo not given)	9%	-4.8%
.	.	CC(C)N(Cc1ccccc1)C(=O)COC(=O)c1cnc(Cl)c(Cl)c1	-6%	1.7%
12%	5	COc1ccc(CCNC(=O)c2oc3ccc(S(=O)(=O)N4CCOCC4)cc3c2C)cc1OC	-24%	-2.3%
-6%	-6	O=C(CSC1=NCCS1)N1CCCC1	-24%	-0.3%
.	.	O=C(CSc1ccc(Cl)cc1)Nc1nnc(-c2ccco2)o1	-3%	0.2%
.	.	Cc1ccc(S(=O)(=O)CCC(=O)Nc2sccc2C(N)=O)cc1	-21%	?
-5%	.	CCOC(=O)N1CCN(C(=O)c2ccc(N3CC4CC(C3)c3cccc(=O)n3C4)c(NC(=O)c3ccc(F)cc3)c2)CC1 (stereo not given)	4%	2.5%
-7%	.	CCN(CC)C(=O)CN1CCC(c2nc3cc(C)c(C)cc3[nH]2)CC1	-1%	1.8%
-12%	0	Cc1ccccc1-n1nc(-c2ccc(N)cc2)cc1N	-4%	-1.0%
-3%	2	COc1ccccc1CNC(=O)CCCNS(=O)(=O)c1cccc2nsnc12	19%	-4.5%
-8%	.	Cc1ccc2nc(N3CCN(CCO)CC3)nc(-c3ccccc3)c2c1	?	?
-2%	1	CCOC(=O)N1CCC(n2c(SCC(=O)c3ccccc3)nc3ccsc3c2=O)CC1	-4%	0.9%
.	.	COC(=O)c1cc(C)nc2c1c(C)nn2-c1ccccc1	29%	-4.3%
1%	5	CC(=O)OC12CC3CC(C1)C(=NO)C(C3)C2	1%	2.8%
-21%	2	O=C(COC(=O)c1cc[n+]([O-])cc1)NCC12CC3CC(CC(C3)C1)C2	14%	0.8%
10%	3	CCCC(=O)O[C@@H]1C[C@@H](C)N(C(=O)c2ccccc2)c2ccc(C)cc21	15%	2.2%
21%	.	COc1ccc(OC)c(/C=C/C(=O)c2ccc3c(c2)OCCO3)c1	?	-2.1%
-1%	.	COC(=O)c1cc(C(=O)Nn2cnnc2)cc([N+](=O)[O-])c1	-1%	3.4%
.	.	C[C@]12CC[C@H](O)CC1=CCC1C2CC[C@@]2(C)C1CCC21OCCO1 (stereo not given in full)	-3%	0.7%
-3%	.	C#Cc1cccc(C(=O)N2CCCC(Nc3cccc(F)c3)C2)c1 (stereo not given)	1%	-0.2%
0%	0	COc1ccc(Cl)c2c1[nH]c1nc(SCc3cccnc3)nnc12	-15%	0.5%
-19%	.	Cc1ccc(S(=O)(=O)Nc2ncnc3ccccc23)cc1	8%	?
-1%	2	COc1ccc(OCC(=O)Nc2sc3c(c2C(=O)NCC2CCCO2)CCC3)cc1 (stereo not given)	-12%	-2.5%
-1%	-3	CCS(=O)(=O)N1CCC(NC(=O)c2ccco2)CC1	1%	0.0%
1%	4	COc1ccc(S(=O)(=O)CCC(=O)Nc2cccc(OC)c2)cc1	.	.
-2%	2	N=c1n(CCCOc2ccc(F)cc2)c2ccccc2n1CC(N)=O	-1%	-1.2%
-2%	-4	CC(Cc1c[nH]c2ccccc12)NC(=O)OCCCl (stereo not given)	-8%	-2.6%
-4%	0	N/C(Cc1ccc([N+](=O)[O-])cc1)=N\OC(=O)c1ccc([N+](=O)[O-])cc1	17%	0.8%
.	.	COc1ccccc1C(=O)COC(=O)c1cc([N+](=O)[O-])ccc1N1CCOCC1	-15%	?
-5%	.	Cc1nn(C)cc1S(=O)(=O)N1CCN(c2ccc(F)cc2)CC1	-2%	-0.3%
.	.	c1ccc(-c2ncnc3ccccc23)cc1	7%	-0.4%
.	.	CCOC(=O)[C@H](CCc1ccccc1)N[C@@H](C)C(=O)N1[C@H](C(=O)O)C[C@@H]2CCC[C@@H]21	23%	-6.3%

Later entries
miR-21 reporter	GLA inh pH 4.5	SMILES	Rango dissoc inh	Rango-impB inh
0%	5	COC(=O)CN1C(=O)C2(OCCCO2)c2ccccc21	5%	0.3%
-3%	-6	O=C(OCC(=O)N1CCc2ccccc21)c1ccc[nH]c1=O	4%	9.7%
.	.	COc1ccc(NS(=O)(=O)c2cc(N)ccc2N2CCCCC2)cc1	20%	2.4%
.	.	CC(=O)Nc1cccc(C(=O)OCC(=O)N2CCC(c3ccccc3)=N2)c1	-8%	-0.9%
-2%	0	COc1ccccc1NC(=O)Cc1noc(CSc2nnc(C)n2C)n1	-10%	-1.0%
-1%	.	Nc1nonc1-n1nnc(C(=O)N/N=C/c2ccoc2)c1CSc1ccc(Cl)cc1	-10%	1.3%
2%	-2	CCC12C(=O)C(CC)(C(c3ccccc3)=C1c1ccccc1)[C@@H]1C(=O)N(c3ccc(C)cc3)C(=O)C12 (stereo not given in full)	-2%	-2.2%
-64%	-2	Cc1cc(N(CCO)CCO)ccc1N=Nc1cc(F)ccc1F	19%	3.6%
9%	.	COc1ccc(-c2csc(NC(=O)c3ccccc3Br)c2C(=O)O)cc1	17%	2.8%
2%	.	COc1ccc(-c2nc3ccccc3nc2-c2ccccc2)cc1OC	-14%	?
.	.	O=C(c1ccc(C(F)(F)F)cc1)N1CCC(=O)N(C(CO)Cc2ccccc2)CC1 (stereo not given)	-3%	-1.2%
-2%	-6	CC(C)N1C(=O)CCC1C(=O)N1CCN(c2ccccn2)CC1 (stereo not given)	-4%	2.4%
.	.	Cc1ccccc1N=Cc1ccc[nH]1	5%	-0.3%
-5%	3	Cc1ccccc1N1C(S)=C(C#N)C(=O)NC12CCCCC2	15%	2.4%
0%	-11	CC(C)(C)S(=O)(=O)/C(C#N)=N/Nc1ccc(S(C)(=O)=O)cc1	-12%	-4.0%
.	.	NC(=O)NN=C1CC2CC1C1C=CCC21 (stereo not given)	-15%	14%

An excerpt from above in order of their number in Rango-impB inh, largest number first.
miR-21 reporter	GLA inh pH 4.5	SMILES	Rango dissoc inh	Rango-impB inh
.	.	NC(=O)NN=C1CC2CC1C1C=CCC21 (stereo not given)	-15%	14%
-2%	0	COc1ccccc1NC(=O)Cc1noc(CSc2nnc(C)n2C)n1	-10%	-1.0%
.	.	O=C(c1ccc(C(F)(F)F)cc1)N1CCC(=O)N(C(CO)Cc2ccccc2)CC1 (stereo not given)	-3%	-1.2%

Fetched by compound from the list above, seven records:
miR-21 reporter	GLA inh pH 4.5	SMILES	Rango dissoc inh	Rango-impB inh
-2%	0	COc1ccccc1NC(=O)Cc1noc(CSc2nnc(C)n2C)n1	-10%	-1.0%
-64%	-2	Cc1cc(N(CCO)CCO)ccc1N=Nc1cc(F)ccc1F	19%	3.6%
-5%	3	Cc1ccccc1N1C(S)=C(C#N)C(=O)NC12CCCCC2	15%	2.4%
-1%	.	Nc1nonc1-n1nnc(C(=O)N/N=C/c2ccoc2)c1CSc1ccc(Cl)cc1	-10%	1.3%
.	.	CC(=O)Nc1cccc(C(=O)OCC(=O)N2CCC(c3ccccc3)=N2)c1	-8%	-0.9%
.	.	O=C(c1ccc(C(F)(F)F)cc1)N1CCC(=O)N(C(CO)Cc2ccccc2)CC1 (stereo not given)	-3%	-1.2%
0%	-11	CC(C)(C)S(=O)(=O)/C(C#N)=N/Nc1ccc(S(C)(=O)=O)cc1	-12%	-4.0%

Screening results (PubChem)
